Bioassay records: PubChem BioAssay, Vanderbilt University
GIRK2 act: activators of human GIRK2 potassium channels. G protein-activated inward rectifier potassium channel 2 (Homo sapiens), P48051. HEK293-GIRK2 thallium flux, Thallos fluorescence. calls only for hits at 25 µM. actives 0.05% (n = 63,000). AID 1259325, 2017;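 active = among the strongest 0.2% of first-round signals and kept after retests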;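 also: first round at about 10 µM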
Target sequence (P48051 whole entry, looked up): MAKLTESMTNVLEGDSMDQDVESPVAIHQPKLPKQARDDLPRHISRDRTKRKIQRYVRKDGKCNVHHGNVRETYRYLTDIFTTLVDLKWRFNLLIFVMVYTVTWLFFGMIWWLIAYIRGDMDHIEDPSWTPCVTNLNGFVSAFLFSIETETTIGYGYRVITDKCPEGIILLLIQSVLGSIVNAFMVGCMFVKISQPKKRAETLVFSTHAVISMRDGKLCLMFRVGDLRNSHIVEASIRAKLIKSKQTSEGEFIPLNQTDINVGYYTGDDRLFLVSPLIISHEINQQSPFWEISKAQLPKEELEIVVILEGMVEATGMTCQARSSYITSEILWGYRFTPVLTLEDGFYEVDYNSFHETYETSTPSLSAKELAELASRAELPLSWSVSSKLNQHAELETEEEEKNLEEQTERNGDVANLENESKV
Calls only; i = inactive. This is a subset; count on the stated rates, not on these rows.

SMILES	GIRK2 act
C=Cc1ccc(CN(c2ccc(C(C)C)cc2)S(=O)(=O)c2cccn3cnnc23)cc1	i
COc1cc(COCC2CCN(Cc3ccccn3)CC2)cc(OC)c1	i
COCC(=O)NCCNc1ccc(-n2cccc2)nn1	i
OC(COc1cccc2ccccc12)CN1CCN(c2ccccc2)CC1 (centres undefined)	i
CCc1ccccc1-n1c(C)cn2c3c(=O)n(CCN4CCOCC4)c(=O)n(C)c3nc12	i
CCOC(=O)Cn1cccc(-c2nc(-c3ccncc3)no2)c1=O	i
COc1cc(NC(=O)CSc2nc3c(sc(=S)n3-c3ccccc3)c(=O)[nH]2)cc(OC)c1	i
Cc1cc(C)n(-c2nc3c(c(=O)n(CC(N)=O)c(=O)n3C)n2Cc2cccc(Cl)c2)n1	i
COc1ccc(OC)c2sc(N(CCCn3ccnc3)C(=O)COc3ccccc3)nc12	i
Cc1nc(NCCNS(=O)(=O)c2ccc(F)cc2)cc(-n2cccn2)n1	i
CC(=O)Cn1c(=O)c2c(nc3n(-c4cccc(C)c4)c(-c4ccccc4)cn23)n(C)c1=O	i
COc1cc(/C=C2\SC(=S)N(c3cccc(Cl)c3)C2=O)cc(OC)c1OC	i
COc1ccc(CCNC(=O)NCC2CCN(Cc3ccsc3)CC2)cc1	i
Nc1nc(SCC(=O)NCc2ccc3c(c2)OCO3)n[nH]1	i
CCOc1ccccc1NC(=O)c1cn(Cc2ccc(NC(=O)Cc3cccc(OC)c3)cc2)cn1	i
COc1ccc(CNC(=O)Cn2nc3c(N4CCOCC4)nccn3c2=O)cc1	i

Reprinted at random: 3 compounds from above.
SMILES	GIRK2 act
C=Cc1ccc(CN(c2ccc(C(C)C)cc2)S(=O)(=O)c2cccn3cnnc23)cc1	i
CC(=O)Cn1c(=O)c2c(nc3n(-c4cccc(C)c4)c(-c4ccccc4)cn23)n(C)c1=O	i
COc1ccc(CNC(=O)Cn2nc3c(N4CCOCC4)nccn3c2=O)cc1	i

(cont.)
SMILES	GIRK2 act
Cc1cccc(CN2CCN(C(c3ccccc3)c3ccc(Cl)cc3)CC2)c1 (centres undefined)	i
COc1ccc(CNC(=O)NCC2CCN(c3cnccn3)CC2)cc1OC	i
COCCn1nnn(-c2ccc(NC(=O)c3ccc(F)cc3Cl)cc2)c1=O	i
Cc1ccccc1NC(=O)NCc1sc(-c2ccccc2Cl)nc1C	i
CCSc1ncc(Cl)c(C(=O)Nc2ccc(C(=O)OC)cc2)n1	i
CCOc1ccc(N2CCCn3c2nc2c3c(=O)n(CCN3CCOCC3)c(=O)n2C)cc1	i
O=C(c1cnccn1)N1CCC(Oc2ccc(C(F)(F)F)cn2)CC1	i
O=C(Nc1nc2c(s1)CN(C(=O)C1CC=CCC1)CC2)c1cccs1 (centres undefined)	i
CCOc1ccc(-n2nnc3c(=O)n(Cc4nc(-c5ccc(Br)cc5)no4)cnc32)cc1	i
Cc1cc(C)c(S(=O)(=O)N2CCCOC2CNC(=O)C(=O)NCCCN2CCOCC2)c(C)c1 (centres undefined)	i
Cc1ccc(-n2c(C)cn3c4c(=O)n(CCN5CCCCC5)c(=O)n(C)c4nc23)cc1	i
Cc1nc(SCc2ccccc2)[nH]c(=O)c1CC(=O)NCCc1ccc(S(N)(=O)=O)cc1	i
CC(=O)c1ccc(NC(=O)CN2CCN(Cc3nc(-c4cccs4)cs3)CC2)cc1	i
COc1ccccc1CCC(=O)NC1(c2nc(C)no2)CCCCC1	i
CN(CC(=O)NCCCn1ncccc1=O)c1nc2c(Cl)cccc2s1	i
COc1ccc(NC(=O)CSc2nnnn2-c2cccc(C)c2)cc1OC	i
CCOc1ccccc1NC(=O)N1CCC(Cn2ccnc2)CC1	i
CCOc1cccc2cc(-c3nc(-c4ccc(OC)c(F)c4)no3)c(=O)oc12	i
COC(=O)c1ccc(S(=O)(=O)NCC2(c3ccccc3OC)CCOCC2)cc1	i
COc1ccc(NC(=O)C(=O)NCCC(O)C2CC2)cc1Cl (centres undefined)	i
CC(C)(C)c1ccc(C(=O)Nc2ccccc2S(C)(=O)=O)cc1	i
CCOC(=O)N1CCN(c2nnc(SCC(=O)NC(C)C)s2)CC1	i
CCCc1nnsc1C(=O)N1CCOC(c2cc(Cl)cc(Cl)c2)C1 (centres undefined)	i
CCOc1ccc(/C=N\n2c(N)c(C(=O)NCCOC)c3nc4ccccc4nc32)cc1	i
COc1ccc(Cn2c(SCc3nc(-c4cccc(C)c4)no3)nc3ccsc3c2=O)cc1	i
COCCNC(=O)C(=O)NCC1OCCCN1S(=O)(=O)c1ccccc1 (centres undefined)	i
CCOC(=O)C1CCc2sc(NC(=O)c3cnn4c3OCCC4)nc21 (centres undefined)	i
Cc1cc(NC(=O)C2CCN(C(=O)c3cccc(-n4cnnn4)c3)CC2)no1	i
COC(=O)c1ccc(S(=O)(=O)N2CC(c3nc(-c4ccccc4)no3)C2)cc1	i
O=C(O)CC(CC(=O)N(Cc1ccsc1)Cc1ccco1)c1cccs1 (centres undefined)	i
O=C(NCc1cccs1)c1ccc2c(=O)nc3c(-c4cccc(F)c4)n[nH]n3c2c1	i
COc1ccc(-c2noc(Cn3nc(-c4ccc5c(c4)OCO5)ccc3=O)n2)cc1	i
C=CCNC(=O)Nc1nc2c(OC)ccc(OC)c2s1	i
O=C(NCC1CCCO1)c1ccc(S(=O)(=O)Nc2ccc(OC(F)(F)F)cc2)o1 (centres undefined)	i
O=C(NCC1CCN(C2CCCC2)CC1)c1ccccc1C(F)(F)F	i
Cc1nnc2c(S(=O)(=O)N(Cc3ccccc3F)c3cccc(Cl)c3)cccn12	i
Cc1ccc(N2CC(c3nc4ccccc4n3Cc3ccc(F)cc3)CC2=O)cc1 (centres undefined)	i
Cn1cnnc1SCCNC(=O)C1CCCN(Cc2nc(-c3ncccn3)no2)C1 (centres undefined)	i
N#Cc1cnc(NC(=O)c2cc(-c3ccccc3)on2)s1	i
O=C(CCn1ccc(=O)[nH]c1=O)NCC#CCOc1ccc2c(c1)OCO2	i

Continued; the last six above are carried over.
SMILES	GIRK2 act
O=C(NCC1CCN(C2CCCC2)CC1)c1ccccc1C(F)(F)F	i
Cc1nnc2c(S(=O)(=O)N(Cc3ccccc3F)c3cccc(Cl)c3)cccn12	i
Cc1ccc(N2CC(c3nc4ccccc4n3Cc3ccc(F)cc3)CC2=O)cc1 (centres undefined)	i
Cn1cnnc1SCCNC(=O)C1CCCN(Cc2nc(-c3ncccn3)no2)C1 (centres undefined)	i
N#Cc1cnc(NC(=O)c2cc(-c3ccccc3)on2)s1	i
O=C(CCn1ccc(=O)[nH]c1=O)NCC#CCOc1ccc2c(c1)OCO2	i
COc1cc([N+](=O)[O-])ccc1NC(=O)/C=C/C1=Cc2ccccc2OC1	i
COCCN(Cc1ccoc1)S(=O)(=O)/C=C/c1ccc(C)cc1	i
Cc1c(C(=O)c2ccccc2)c(N)c(-c2ccccc2)n1Cc1ccc(Cl)cc1	i
COc1cccc(F)c1C(=O)c1cnc(NC2CCN(S(C)(=O)=O)CC2)nc1N	i
Cc1ccc(N2CC(C)Cn3c2nc2c3c(=O)n(C)c(=O)n2C)cc1C (centres undefined)	i
Cc1ccc(SCCC(=O)Nc2sc3c(c2-c2nc4ccccc4s2)CCN(C)C3)cc1	i
COc1ccc(S(=O)(=O)NCC(O)c2ccc3c(c2)CCO3)cc1Cl (centres undefined)	i
O=C(Cn1nc2c(N3CCOCC3)nccn2c1=O)NCc1ccc(C(F)(F)F)cc1	i
COc1ccc(-c2n[nH]n3c2nc(=O)c2ccc(C(=O)NCc4cccs4)cc23)cc1	i
O=C(CCS(=O)(=O)c1ccccc1)Nc1ccccc1NC(=O)c1cccc(Cl)c1	i
CC(O)(CNC(=O)NCCCc1ccccc1)c1ccco1 (centres undefined)	i
Cc1ccc2c(Nc3ccc(S(C)(=O)=O)cc3)c(C(=O)OC(C)C)cnc2n1	i
Clc1ccc(Cc2noc(Cc3nc(-c4ccccc4)cs3)n2)cc1	i
Cc1cccc(NC(=O)Cn2cccc(-c3nc(-c4ccc(F)cc4)no3)c2=O)c1	i
O=C1OC(N2CCOCC2)c2ccccc21 (centres undefined)	i
O=C(c1ccc(OC(F)(F)F)cc1)N1CC(c2nc(-c3cccs3)no2)C1	i
O=C(Nc1ccc(Cl)cc1C(F)(F)F)c1ccc2nc[nH]c2c1	i
C=CCn1c(SCC(N)=O)nc2scc(-c3ccc(C)c(C)c3)c2c1=O	i
O=C(NCC1CCN(C2CCCC2)CC1)C(=O)NC1CCCC1	i
COc1ccc(NC(=O)CSC2=NNC3C4CC(c5ccccc5)NN4C=CN23)cc1 (centres undefined)	i
COc1ccccc1C(O)Cn1cc(C(=O)NCCC2=CCCCC2)nn1 (centres undefined)	i
Cn1nc(C(=O)Nc2nc3c(s2)CN(S(=O)(=O)C2CC2)CC3)ccc1=O	i
O=C(CC1=C/C(=C\c2ccc(-c3ccc(F)cc3F)cc2)c2ccc(F)cc21)NCc1ccccc1	i
COCCNC(=O)/C(C#N)=C1\N=C(NC(=O)c2cccs2)c2ccccc21	i
O=C(Cc1cc(-c2ccc3c(c2)OCO3)on1)Nc1ccon1	i
CCCNC(=O)Cn1nc(-c2cccs2)c2sc(N3CCCC3)nc2c1=O	i
CCC(C(=O)NCCOC)n1cccc(-c2nc(C3CC3)no2)c1=O (centres undefined)	i
O=C(Nc1cc(Cl)ccc1Cl)c1cccc(-n2cnnn2)c1	i
Cc1cc(C)c(S(=O)(=O)Nc2ccc(-n3nnc(C(N)=O)n3)cc2)c(C)c1	i
COc1ccc(CNC(=O)CCc2nnc3c(N4CCCCC4)nc4ccccc4n23)cc1OC	i
CN(C)c1cccc(C(=O)NCc2cc(-c3ccccn3)n(C)n2)c1	i
Cc1ccc(C(C)C)c(OCCCn2c(CO)nc3ccccc32)c1	i
Cc1nc(-c2ccc(N3CCN(S(=O)(=O)c4cccnc4)CC3)nc2)no1	i
O=C(CSc1nnc(-c2cccnc2)o1)Nc1cc(Cl)cc(Cl)c1	i
O=C(NCC(O)(c1ccccc1)C(F)(F)F)NC1CCCCC1 (centres undefined)	i
CCN(CC)S(=O)(=O)c1ccc2oc(-c3nc(-c4ccc(OC)c(OC)c4)no3)c(C)c2c1	i
COCC1CCCN(CC(=O)NCc2ccc(C)cc2)C1 (centres undefined)	i
Cc1cc(N2CCN(C(=O)c3cc4ccccc4o3)CC2)ncn1	i
CC(C)COC(=O)C(C#N)c1nc2ccccc2nc1N1CCN(c2ccc(F)cc2)CC1 (centres undefined)	i
CCS(=O)(=O)Nc1ccc(C2=NN(C(=O)c3cccs3)C(c3ccc(Cl)o3)C2)cc1 (centres undefined)	i
CCC1CCCCN1S(=O)(=O)c1ccc(C)cc1 (centres undefined)	i
Cc1cc(C)c(S(=O)(=O)N2CCN(C(=O)c3ccccc3Cl)CC2)c(C)c1	i
COc1ccc(N/C=C(\C#N)c2nc(-c3cc4cc([N+](=O)[O-])ccc4oc3=O)cs2)cc1OC	i
COCCCn1c(=O)c2ccccc2n(Cc2nc(-c3ccc4c(c3)OCO4)no2)c1=O	i
COc1ccc(NC(=O)Cn2c(=O)nc(-c3ccccc3)c3ccccc32)cc1Cl	i
CN(C)S(=O)(=O)c1ccc(C(=O)N2CCC(Oc3nc4ccccc4s3)CC2)cc1	i
CCCCCn1c(SCC#N)nc2cc(C(=O)NC3CCCCC3)ccc2c1=O	i
O=C(c1cc2ccccc2[nH]1)N1CCC(c2nnc(-c3ccc(F)cc3)o2)CC1	i
CCCc1cc2c(=O)c(-c3nc4ccccc4s3)c(CCCC(=O)O)oc2cc1O	i
Cc1c(Cl)cccc1S(=O)(=O)N1CCN(CC(C)O)CC1 (centres undefined)	i
Cc1ccccc1Cn1c(C2CC(=O)N(C(C)(C)C)C2)nc2ccccc21 (centres undefined)	i
O=C(NCC1CCN(c2cnccn2)CC1)c1ccc(Br)o1	i
Cn1cccc1C(CNC(=O)C1CCN(S(C)(=O)=O)CC1)N1CCc2ccccc2C1 (centres undefined)	i
COc1ccc(OCc2ccc(-c3nc(C#N)c(N4CCN(C)CC4)o3)o2)cc1	i
O=C(CSC1CCCC1)Nc1cccc(N2CCCCC2=O)c1	i
Cc1ccc(/C=C/S(=O)(=O)N2CC(c3nc(-c4ccc[nH]c4=O)no3)C2)cc1	i

(next part)
SMILES	GIRK2 act
O=C(NCCC(O)C1CC1)C(=O)Nc1ccc(C(F)(F)F)cc1 (centres undefined)	i
COc1ccc(NC(=O)c2cc(=O)c(OCc3ccccc3)cn2C)c(OC)c1	i
CCOc1ccc(-c2cc3c(=O)n(Cc4nc(-c5ccc(OC)c(OC)c5)no4)ncn3n2)cc1	i
O=C(c1ccc(Br)cc1)N1CCN(c2ncnc3c2nnn3-c2ccccc2)CC1	i
COc1ccc(SCCCC(=O)Nc2sccc2C(N)=O)cc1	i
COc1cccc(-c2nc(Cn3cccc(-c4nc(C)no4)c3=O)no2)c1	i
CCOc1ccc(-c2nc(CSc3nc4ccccc4c(=O)n3CCOC)c(C)o2)cc1	i
COc1cccc(C2c3c(oc4cc(C)c(C)cc4c3=O)C(=O)N2CCN(C)C)c1OC (centres undefined)	i
CC(C)c1c(-c2nnc(-c3cccnc3)o2)nnn1-c1ccccc1	i
CCCCCn1c(=S)[nH]c2cc(C(=O)NCCCN3CCOCC3)ccc2c1=O	i
O=C(c1ccco1)N1CCN(c2ncc3c(=O)n(C4CCCC4)c(=O)[nH]c3n2)CC1	i
Cc1ccccc1-c1nc(C)c(CNC(=O)NC2CCCC2)s1	i
O=C(c1ccc(-n2cccc2)cc1)N1CCC(COCc2ccc(Cl)cc2)CC1	i
CC(=O)N1CCCC(c2nnc(Cc3ccccc3)s2)C1 (centres undefined)	i
O=C(c1cc(-c2ccccc2)on1)N1CCC(CSCc2ccco2)CC1	i
